Screens (PubChem BioAssay)
ALR inh = inhibitors of human ALR sulfhydryl oxidase, primary screen, biochemical, H2O2 detection, HRP-luminol luminescence, single point; FAD-linked sulfhydryl oxidase ALR (Homo sapiens), P55789; 3.8% of 290,000 active; purified ALR, DTT oxidation; inhibition, % (no concentration beside the values);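 active = mean and each replicate at 75% or more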;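 note: stock transfer was 7.5 nL into about 7.5 µL; 0% = neutral wells and 100% = wells with inactivated enzyme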
Target sequence (P55789 whole entry, looked up): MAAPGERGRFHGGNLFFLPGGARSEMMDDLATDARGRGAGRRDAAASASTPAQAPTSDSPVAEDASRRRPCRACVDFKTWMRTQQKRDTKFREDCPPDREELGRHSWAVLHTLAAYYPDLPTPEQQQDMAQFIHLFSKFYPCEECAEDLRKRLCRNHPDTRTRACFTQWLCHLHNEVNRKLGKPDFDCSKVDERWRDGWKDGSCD
AF4-AF9 inh = inhibitors of AF4 peptide binding to AF9, primary screen, biochemical, AlphaScreen, biotin-AF4 peptide, FLAG-AF9, single point. Protein AF-9 (Homo sapiens), P42568. inhibition, % at 10 µM. 0.47% of 350,000 active. AID 651704, 2012;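 active = every replicate reaching a set inhibition limit, whatever the replicate mean, cut at about 25% in these data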;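 note: 0% = plate neutral control median and 100% = total signal loss; the record names both 10 and 1 µM as test concentration; the first replicate is given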
Ecoli growth = E. coli growth inhibition, primary screen, OD600; 0.21% of 330,000 active; Escherichia coli growth, 23 h; hits give low values; OD600 absorbance (test concentration not listed); AID 1053175, 2014;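 active = OD600 absorbance below the run mean of sample wells minus 3.6 SD, in any replicate, cut at about 0.56 in these data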;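 note: stock transfer was 300 nL into about 60 µL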
HNF4A DNA FP = change in binding of human HNF4A to DNA, primary screen, biochemical, fluorescence polarization, FITC-DNA. 1 h. activity change, % at 10 µM. 0.3% of 360,000 active; in the data active = activity change above about 30%, passing the limit was not always enough;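 note: controls were the assay level and a saturating level of protein; the project sought stronger binding though the title names inhibitors; some compounds called inactive have numbers as strong as hits; positive values seem to mean higher polarization but the record does not say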
Target sequence (P41235 whole entry, looked up): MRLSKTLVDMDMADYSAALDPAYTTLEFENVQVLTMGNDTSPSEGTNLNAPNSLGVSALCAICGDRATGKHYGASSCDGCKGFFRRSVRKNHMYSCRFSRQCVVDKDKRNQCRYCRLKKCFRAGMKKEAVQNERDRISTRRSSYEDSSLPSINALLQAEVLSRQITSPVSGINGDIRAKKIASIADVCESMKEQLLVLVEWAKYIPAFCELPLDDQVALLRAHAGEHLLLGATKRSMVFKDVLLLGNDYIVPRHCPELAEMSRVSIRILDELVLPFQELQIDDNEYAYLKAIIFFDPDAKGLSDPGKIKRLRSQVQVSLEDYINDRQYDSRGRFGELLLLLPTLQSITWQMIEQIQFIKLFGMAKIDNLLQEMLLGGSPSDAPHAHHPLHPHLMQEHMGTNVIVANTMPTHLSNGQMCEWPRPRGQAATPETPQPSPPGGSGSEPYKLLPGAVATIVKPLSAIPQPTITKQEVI
Vif A3G = inhibitors of Vif binding to APOBEC3G peptide, primary screen, biochemical, TR-FRET, GST-Vif 1-94, biotin-A3G peptide, dose response retest (AID 1117319) | Virion infectivity factor (Human immunodeficiency virus type 1 group M subtype B (isolate … | TR-FRET GST-Vif / biotin-A3G peptide binding; higher % means a stronger effect; test concentration not given here; strong numbers were not always called active | inhibition, %, or IC50 in µM where a hit was titrated | 0.57% of 260,000 active;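 active = above the screen mean plus three standard deviations and confirmed in dose response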;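 note: Vif residues 1-94 fused to GST binding biotinylated APOBEC3G peptide 110-148; 0% = full assay without inhibitor and 100% = GST in place of GST-Vif; retest series ran down from 100 µM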
rRNA inh HTS = reduced GFP signal of wild-type E. coli, primary screen, bacterial rRNA inhibitor project, GFP/RFP fluorescence, OD600, single point | E. coli WT GFP vs humanized-ribosome RFP mutants, 24 h; hits give low values; DMSO median 0, no signal -100 | GFP signal change (wild-type ribosome), % (test concentration not listed) | 1.6% of 350,000 active | AID 720706, 2013;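 active = significant combined selectivity score with lowered wild-type GFP, culture density cut under 30%, mutant RFP and density less affected; inactive = any of these conditions unmet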; note: one replicate is shown; some compounds called inactive have numbers as strong as hits
FGF22 binding = binders of human FGF22 protein, primary screen, FGF22 synaptogenesis inhibitor project, biophysical, thermal shift, single point; calls only at 9.99 µM; recombinant FGF22 thermal shift, SYPRO orange fluorescence; percent of sucrose octasulfate shift, DMSO zero; 1.5% of 340,000 active; AID 651658, 2012; Fibroblast growth factor 22 (Homo sapiens), Q9HCT0;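 active = melting point raised past a set limit in the mean and every replicate; three in four hits are not shown here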
Target sequence (Q9HCT0 whole entry, looked up): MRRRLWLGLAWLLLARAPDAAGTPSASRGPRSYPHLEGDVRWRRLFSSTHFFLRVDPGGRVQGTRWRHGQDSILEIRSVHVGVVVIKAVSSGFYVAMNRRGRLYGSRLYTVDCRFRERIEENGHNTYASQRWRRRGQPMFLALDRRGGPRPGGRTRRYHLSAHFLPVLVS
rRNA inh HTS OD600 = second read-out of rRNA inh HTS, no call of its own (marks repeat the call); OD600 change, %; measured here: OD600 growth;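 optical density of the mix in the first replicate; 0 = DMSO median and -100 = no signal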
rRNA inh HTS RFP = recorded beside rRNA inh HTS, whose call it bears; RFP signal change, %; measured here: RFP humanized mutant strains;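 first replicate; 0 = DMSO median and -100 = no signal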
The depositor's hits bear a star; i = inactive; / = no result given; & = joins results of further samples. Only part of the results is shown. The share of hits here may be higher or lower than overall.

structure	ALR inh	AF4-AF9 inh	Ecoli growth	HNF4A DNA FP	Vif A3G	rRNA inh HTS	rRNA inh HTS OD600	rRNA inh HTS RFP	FGF22 binding
Cc1ccc(CSc2nc3nc(C)cc(C)c3c(=O)[nH]2)cc1	3	-3.4	0.65	1.3	11%	2	7	1.6	i
CCc1ccc(NC2=CC(=O)CC(C)(C)C2)cc1	-7	0.2	0.68	-2.0	-5%	-2	-9	0.1	i
CCS(=O)(=O)N1[C@@H](CO)[C@@H](c2ccccc2)C12CN(C(=O)C1CCCCC1)C2	/	-0.1	/	/	/	-1	3	-0.5	i
O=C(NCC[C@@H]1CC[C@H](NC(=O)C2CC2)[C@H](CO)O1)c1cc(Cl)cc(Cl)c1	/	-2.9	/	/	/	-3	1	-1.4	i
Cc1ccc(S(=O)(=O)NCC(=O)OCc2csc(CC(=O)Nc3ccccc3C)n2)cc1C	/	1.2	0.7	-0.4	/	10	2	5.2	i
Cc1ccccc1OCC(O)Cn1c(N2CCCCC2)nc2c1c(=O)[nH]c(=O)n2C (stereo not drawn)	-3	-3.2	0.67	0.7	/	8	8	2.6	i
COc1ccccc1CNC(=O)C1CCCN(S(=O)(=O)c2cccs2)C1 (stereo not drawn)	-1	1.9	0.66	0.4	/	1	-8	-1.1	i
CC(=O)N1N=C(c2ccc(C)o2)CC1c1cccc(F)c1 (stereo not drawn)	-1	2.0	0.67	0.5	-2%	5	-1	1.6	i
S=C(NCCc1ccccn1)Nc1ccc(Cl)cc1	2	-48	0.68	-2.3	3%	-6	-3	-1.6	i
CCC1CCc2c(sc(NC(C)=O)c2C#N)C1 (stereo not drawn)	-3	/	0.7	1.6	-10%	/	/	/	/
Cn1cc(Br)cc2nc(C(F)(F)F)nc1-2	-1	/	0.74	0.8	5%	/	/	/	/
C[C@H]1CN([C@@H](C)CO)C(=O)c2cccc(NC(=O)CCCCCC(=O)Nc3ccccc3N)c2O[C@H]1CN(C)S(=O)(=O)c1ccc(Cl)cc1	/	-8.1	/	/	/	-2	-6	4.6	i
O=C(O)Cc1ccc(NC(=O)C2CCCCC2C(=O)O)cc1 (stereo not drawn)	-26	/	0.69	-2.6	0%	/	/	/	/
c1ccc(OCCNc2ccn3nc(-c4ccc(OCCN5CCOCC5)cc4)cc3n2)cc1	/	-1.0	/	2.5	/	-36	-54	-2.2	i
COc1ccc(NC2CC(=O)N(CCc3ccccc3)C2=O)cc1 (stereo not drawn)	69	/	0.78	4.1	26%	/	/	/	/
COc1ccccc1/C=C1\SC(=S)N(CCC(=O)NCCCn2ccnc2)C1=O	2	7.0	0.66	0.3	/	-24*	-10*	-0.7*	i
CC(C)C[C@H](NC(=O)OCC1c2ccccc2-c2ccccc21)C(=O)O	/	-0.3	/	-2.0	/	/	/	/	i
Cc1noc(C)c1S(=O)(=O)Nc1ccc2c(c1)C(=O)N([C@@H](C)CO)C[C@@H](C)[C@@H](CN(C)S(=O)(=O)c1cccs1)O2	/	0.5	/	/	/	-2	-2	-0.3	i
CCN(CC)C(=S)NC(=O)c1ccc(F)cc1	5	-11	0.71	2.3	21%	14	4	-3.2	i
CCCCCC(=O)N1CC2(CC(c3cccc(NC(=O)COc4ccc(Cl)cc4)c3)=NO2)C[C@@H]1C(N)=O (stereo partly drawn)	1	0.9	/	-0.7	-1%	5	-3	11	i
Cc1ccc2ncnc(-c3ccccc3)c2c1	-22	-1.3	0.69	1.1	5%	2	2	-2.4	i
COc1ccc(NC(=O)Nc2ccc3c(c2)C(=O)N([C@@H](C)CO)C[C@@H](C)[C@H](CN(C)C(=O)Nc2cccc4ccccc24)O3)cc1	/	3.6	/	/	/	-5	-1	1.9	i
CC(=O)c1c(C)nc2ccccc2c1N	-3	/	0.65	-1.4	2%	/	/	/	/
COc1ccc(NC(=O)N(C)C[C@H]2Oc3ccc(NC(=O)Nc4ccccc4)cc3CC(=O)N([C@H](C)CO)C[C@H]2C)cc1	/	-1.1	/	/	/	3	-2	1.7	i
Cc1nc(-c2ccc([N+](=O)[O-])cc2)c(-c2ccccc2)o1	98*	17	0.67	5.7	1%	-32*	-14*	13*	i
CCOC(=O)Cc1csc(NC(=O)c2c(O)c3ccccc3n(CC(C)C)c2=O)n1	4	-6.3	0.66	-0.2	-5%	6	-8	-3.9	/
O=C(O)CCCNC(=O)/C(=C\C=C\c1ccccc1)NC(=O)c1ccccc1Cl	/	-2.3	0.68	-2.6	10%	9	3	-4.7	i
Cc1noc(C)c1COC(=O)/C=C/c1ccccc1Cl	-3	3.2	0.7	-2.3	-10%	-43	-53	-12	i
Cc1cccc(CN2CCC(C(=O)Nc3ccc(Oc4cccnc4)cc3)CC2)c1	-4	4.5	0.66	1.5	/	0	-1	1.2	i
CN(C(=O)c1ccc2c(c1)C(=O)N(CCC1=CCCCC1)C2=O)C1CCCCC1	-2	6.9	0.72	-3.2	3%	-29	-46	4.2	i
COc1ccccc1NC(=O)Nc1nc(C(N)Cc2ccc(C(F)(F)F)cc2)cs1 (stereo not drawn)	/	-1.3	/	3.6	/	-27	-32	-12	i
Cn1c(SCC(N)=O)nnc1C1CCN(S(=O)(=O)c2ccccc2C(F)(F)F)CC1	15	/	0.72	3.4	11%&5%	/	/	/	/
C[C@@H]1CCCCO[C@H](CN(C)S(=O)(=O)c2cn(C)cn2)[C@@H](C)CN([C@H](C)CO)C(=O)c2cc(NS(=O)(=O)c3ccc(Cl)cc3)ccc2O1	/	-5.6	/	/	/	4	1	-0.2	i
COC(=O)Cc1nnn2c1[C@H](C)[C@@H](OC)c1ccccc1-2	/	-6.2	/	/	/	9	16	-0.4	/
COc1cc(/C=N/NC(=O)C(C)n2nnc3ccccc32)ccc1O (stereo not drawn)	97*	/	/	0.8	-7%	/	/	/	/
CCn1c(CNc2ccc(C)cc2)nnc1SCC(N)=O	/	/	0.68	-1.2	-4%	/	/	/	/
Cc1ccccc1-c1nc(CN2CCCC(C(=O)NCCCN3CCOCC3)C2)c(C)o1 (stereo not drawn)	-14	/	0.66	2.2	27%	/	/	/	/
CCCNC(=O)N[C@@H]1C=C[C@@H](CC(=O)NC2CCC2)O[C@@H]1CO	/	2.0	/	/	/	5	2	-0.7	i
CCc1ccc(NC(=O)CSc2ccccn2)cc1	/	-3.7	0.64	0.6	/	-17	0	-1.7	i
C[C@H](CO)N1C[C@H](C)[C@H](CN(C)C(=O)c2ccncc2)OCCCC[C@H](C)Oc2ccc(NC(=O)c3ccncc3)cc2C1=O	/	5.1	/	/	/	2	7	-3.1	i
CN(C)CC#Cc1ccc([C@@H]2[C@H]3CN(C(=O)C4CCC4)CCCCN3[C@H]2CO)cc1	/	-5.6	/	/	/	4	9	-1.7	i
Cn1c(=O)c2c(nc(CN3CCN(C(=O)c4ccco4)CC3)n2CCCc2ccccc2)n(C)c1=O	-14	-12	0.73	1.9	4%	-3	-11	3.0	i
CCn1c(SCC(=O)Nc2nc3ccc(C)cc3s2)nc2c(c1=O)SC(C)C2 (stereo not drawn)	/	/	0.77	0.2	-4%	/	/	/	/
CC(C)c1ccc(/C=C/C(=O)O)cc1	8	0.8	0.71	-3.3	4%	3	1	-0.8	i
COc1ccccc1CNC(=O)CN(c1ccc(C)cc1)S(=O)(=O)c1c(C)noc1C	-6	-0.9	0.7	4.7	/	4	-24	1.5	i
CC1(C)CC(=O)C(Br)=C(O)C1	/	-4.5	0.64	0.2	9%	2	8	-12	i
CCC(CC)C(=O)N(c1ccc(F)cc1)C1C=CS(=O)(=O)C1 (stereo not drawn)	-2	-4.5	0.67	0.9	13%	5	10	0.1	i
COc1ccc(NC(=O)N(C)C[C@H]2Oc3c(NC(=O)CCCCCC(=O)Nc4ccccc4N)cccc3C(=O)N([C@H](C)CO)C[C@@H]2C)cc1	/	2.5	/	/	/	-1	-2	-1.9	i
COc1ccc(-c2ccc3c(c2)O[C@H](CN(C)C)[C@H](C)CN([C@H](C)CO)S3(=O)=O)cc1	/	-0.5	/	/	/	2	-2	-4.2	i
CSc1ccc(Cl)c(C(=O)NCCOc2cc(C)ccc2C(C)C)c1	0	-0.6	0.7	3.5	4%	-7	6	1.7	i

Additional entries follow:
structure	ALR inh	AF4-AF9 inh	Ecoli growth	HNF4A DNA FP	Vif A3G	rRNA inh HTS	rRNA inh HTS OD600	rRNA inh HTS RFP	FGF22 binding
O=c1cc(O)nc[nH]1	-7	-2.8	0.68	-1.6	2%	5	17	-3.8	i
COc1cccc(NC(=O)N(C)C[C@H]2Oc3cc(/C=C/c4ccccc4)ccc3S(=O)(=O)N([C@H](C)CO)C[C@H]2C)c1	/	1.2	/	/	/	0	5	-3.5	i
CCCc1ccc(-c2cc(C(=O)N3CCN(c4ccccn4)CC3)c3ccccc3n2)cc1	-8	1.2	0.74	-2.4	/	1	5	-2.0	i
COc1ccc(NC(=O)C2CC(c3c(F)cccc3Cl)=NO2)cc1OC (stereo not drawn)	-7	-5.3	0.71	-2.1	-1%	-5	-4	-3.2	i
O=C1CCc2ccccc2N1Cc1ccccc1	-23	-0.4	0.67	2.6	-8%	-3	5	0.1	i
CC(OC(=O)CN1C(=O)c2ccccc2C1=O)C(=O)N(C)c1ccccc1 (stereo not drawn)	/	-2.6	0.62	1.6	-3%	-2	-4	4.0	i
CCN(CC)CCCN(C(=O)c1cccs1)c1nc(-c2ccc(OC)cc2)cs1	-27	/	0.7	-1.0	-5%	/	/	/	/
O=C(N/N=C/c1ccc([N+](=O)[O-])o1)c1ccncc1	-35	-0.1	/	-3.6	/	-50	-57	-14	i
Cc1ccc(-c2nc3ccc(Cl)cn3c2CC2CCCCC2)cc1	/	-2.4	/	1.1	/	0	7	0.0	i
OCc1ccccc1-c1cnc2sc(NCc3ccc(F)cc3)nn12	/	-0.6	/	-1.9	/	-62	-80	-19	i
CC(C)(CO)NC(=O)CC1C(=O)NCCN1Cc1ccc(-c2ccccc2)cc1 (stereo not drawn)	-19	5.2	0.67	-1.2	/	2	2	2.2	i
COc1ccc(NC(=O)N(C)C[C@@H]2OCCCC[C@H](C)Oc3ccc(NS(=O)(=O)c4ccc(Cl)cc4)cc3C(=O)N([C@H](C)CO)C[C@H]2C)cc1	/	2.2	/	/	/	0	-4	-2.8	i
CCCS(=O)(=O)NC(=O)C1(C)CCN(C(=O)c2cccc(C(F)(F)F)c2)C1 (stereo not drawn)	/	-1.7	/	2.6	/	0	2	-0.9	i

Some of these compounds in order of their number in ALR inh, low to high:
Structure	ALR inh
O=C(N/N=C/c1ccc([N+](=O)[O-])o1)c1ccncc1	-35
CCCc1ccc(-c2cc(C(=O)N3CCN(c4ccccn4)CC3)c3ccccc3n2)cc1	-8
O=c1cc(O)nc[nH]1	-7
